# Screening results from PubChem.
# NPYLR7 agonist – activates Aedes aegypti NPYLR7 receptor | activation, % at 10 µM | HEK293T NPYLR7/Galpha15, GCaMP6s calcium fluorescence | AID 1259423 | hit rate 0.15% among 270,000; in the data active = activation above about 40%;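 also: 0% = vehicle and 100% = reference agonist at the receptor; some compounds past the cut are filed as inactive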
# NPYLR7 agonist max-min – second read-out of NPYLR7 agonist, no call of its own (marks repeat the call); activation, %; measured here: Max-Min RFU normalised activation; some inactives read as strong as hits;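 span of the calcium signal over five minutes; 0% = vehicle and 100% = native peptide agonist; compound fluorescence can raise it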
# Numbers without * were called inactive; & = joins results of further samples.
mol,NPYLR7 agonist,NPYLR7 agonist max-min
Cc1ccc(CNC(=O)C23CC4CC(CC(O)(C4)C2)C3)cc1F,0,-2
C=CCn1c(SCCC#N)nc2sc(C)c(C)c2c1=O,8,3
Cc1ccc2nc(-c3ccc4c(c3)OCO4)c(NCc3ccccc3)n2c1,0&-3,3&4
CC(Oc1ccccc1)C(=O)N(Cc1cccc(Cl)c1)Cc1nc2cc(Cl)ccc2o1 (stereo not drawn),9,8
Cc1onc(C(=O)NC(C)CN2CCc3ccccc3C2)c1CO (stereo not drawn),-8,-10
O=C(c1cccs1)N(Cc1ccc(F)cc1)CC1CC(c2ccc(Cl)c(Cl)c2)=NO1 (stereo not drawn),21,46
CCN(CCc1ccccn1)S(=O)(=O)c1ccc(C)c(Cl)c1,10,5
CCOc1ccc(NC(=O)CN(C)C(=O)c2ccsc2)cc1OCC,9,5
C=CCNC(=S)N/N=C\c1ccc(-c2cccc([N+](=O)[O-])c2)o1,-4,-8
Cc1occc1-c1nnc(SCC(=O)c2cc(C)n(-c3ncn[nH]3)c2C)n1C,2,6
c1cncc(CN2CC(n3cccn3)Cc3ccccc32)c1 (stereo not drawn),0,-1
Cc1ccsc1-c1nc(CN2C[C@@H](C)O[C@@H](C)C2)c(C)o1,-9,-13
COc1cccc(-c2cc(C(=O)NCCN3CCOCC3)n(-c3cccc([N+](=O)[O-])c3)n2)c1,-1,0
CCOC(=O)C1(CCOc2ccccc2)CCN(Cc2cc3ccccc3[nH]2)CC1,3,-3
COc1cc2ccccc2cc1C(=O)Nc1sccc1C(N)=O,2,-1
CN(Cc1cccs1)c1nc(C(C)(C)C)nc2c1cnn2C,3,2
O=C1NC(=S)S/C1=C\C(Br)=C\c1ccccc1,0,-3
CN(C)CC(c1ccc(O)cc1)C1(O)CCCCC1 (stereo not drawn),-4,0
Cc1cc(C)n2nc(C(=O)NCc3cccnc3N3CCCN(C)CC3)cc2n1,2,-3
O=C(CCCc1nc2ccccc2s1)Nc1ccc2c(c1)CCC2,4,4

mol,NPYLR7 agonist,NPYLR7 agonist max-min
COc1ccc(C(=O)NCC(=O)NC2CCN(C(=O)C(C)C)C2)cc1 (stereo not drawn),2,1
COc1ccccc1NC(=O)Cc1csc(C)n1,14,4
CC(C)(C)C(C(=O)N1CCC2(CC1)OC(=O)c1ccccc12)n1cccc1 (stereo not drawn),1,10
Cc1[nH]c(=S)[nH]c(=O)c1CCC(=O)NC(C)c1ccccc1Cl (stereo not drawn),4,3
C=c1cc(C)n(CC(=O)Nc2ccc(OC)c(OC)c2)c(=O)c1=C1N=C(c2ccccc2)NO1,-2,-7
CCCCCc1ccc(C(=O)N(CCN2CCCC2)CC(=O)N(Cc2ccc(F)cc2)Cc2cccs2)cc1,13,11
Cc1ccc(-c2cc(C(=O)O)[nH]n2)cc1,-2,-5
COc1ccc2nc(-c3ccc(C)c(NC(=O)NCc4ccccc4)c3)cn2n1,3,2
CC1(C(=O)NS(=O)(=O)c2ccccc2)CCN1C(=O)c1ccccc1CCc1ccccc1 (stereo not drawn),10,6
Cc1ccc(C(=O)COC(=O)c2ccc(F)c(S(=O)(=O)N3CCOCC3)c2)s1,-8,-9
COc1ccc(CN2CCC2(C)C(=O)NCc2ccc3c(c2)OCO3)c2ccccc12 (stereo not drawn),-2,-12
C=CS(=O)(=O)Oc1ccccc1,11,5
COCc1cc(N(C)CCc2ccc(OC)c(OC)c2)nc(SCc2cccc(C(=O)O)c2)n1,10,18
CC(=O)NCc1c(I)c(NC(C)=O)c(I)c(C(=O)O)c1I,-17,-20
O=C(Cc1ccccc1)N1CCC(n2c(=O)oc3ccc(F)cc32)CC1,3,1
Cc1ccccc1-c1nc(OCC(C)C)nn1-c1ccc(NC(=O)c2ccc(C(C)(C)C)cc2)cc1,-1,2
COc1ccc(N2CCN(c3nc(SC)ncc3CNC(C)c3cccc(OC)c3)CC2)cc1 (stereo not drawn),3,1
COc1cccc(OCC(=O)N(CCn2nc(C)cc2C)c2nc3ccccc3s2)c1,-17,-24
CCC1CCCCN1CN1C(=O)NC2(CCC(C)CC2)C1=O (stereo not drawn),3,17
CSc1ncc(CN2CCCC(OCc3cccnc3)C2)cn1 (stereo not drawn),16,11

# Among those listed so far, these contain a COOH group.
mol,NPYLR7 agonist,NPYLR7 agonist max-min
Cc1ccc(-c2cc(C(=O)O)[nH]n2)cc1,-2,-5
COCc1cc(N(C)CCc2ccc(OC)c(OC)c2)nc(SCc2cccc(C(=O)O)c2)n1,10,18
CC(=O)NCc1c(I)c(NC(C)=O)c(I)c(C(=O)O)c1I,-17,-20

# Next section.
mol,NPYLR7 agonist,NPYLR7 agonist max-min
CCc1ccc(CN(Cc2ccsc2)Cc2ccco2)nc1,-7,-8
COC(=O)c1ccc(Oc2coc3c4c(ccc3c2=O)OCN(C2CC(C)(C)NC(C)(C)C2)C4)cc1,-3,6
CCOCC(=O)N1CCN(Cc2nnnn2-c2ccc(OCC)cc2)CC1,-1,-2
C=CCN1CCCC1C(=O)N1CCC(c2n[nH]c(=O)n2CC)CC1 (stereo not drawn),3,3
Cc1[nH]c2ccc(CNC(=O)c3ccc4c(c3)N(C)C(=O)CO4)cc2c1C,0,18
Cc1ccc2[nH]c3c(=O)n(CC(C)c4ccccc4)cnc3c2c1 (stereo not drawn),1,-3
CC(=O)Nc1cccc(C(=O)Nc2cc3c(cc2Cl)OCO3)c1,5,2
CCc1ccc(C(=O)N2CCC(c3nc(-c4ccccc4F)no3)CC2)cc1,4,0
C=Cc1ccc(CSc2nccn(-c3ccc(C)cc3)c2=O)cc1,5,-10
CS(=O)(=O)CCNc1ccc2c(Cl)ccnc2c1F,-2,-8
Cc1ccc(C)c(S(=O)(=O)NCC(c2ccc3c(c2)CCCN3C)N(C)C)c1 (stereo not drawn),8,5
CSc1ccc(CNC(=O)C2CCC(=O)N(CCCc3ccccc3)C2)cc1 (stereo not drawn),14,4
Cc1cccc(CSc2ncc(CO)n2CC(=O)NCc2ccccc2)c1,7,3
Cc1cc(S(=O)(=O)N(C)C)cc(NC(=O)c2nn(-c3ccc(F)cc3)c3c2CCCC3)c1C,0,1
CN(Cc1ccccc1)CC1(c2ccnc(-c3ccccc3Cl)c2)CC1,-15,-15
COc1cccc(CN2CCC2(C)C(=O)Nc2ccc3c(c2)CCN3C(C)=O)c1OC (stereo not drawn),5,-2
CCC(C)N(Cc1ccc(C)cc1)Cc1nccs1 (stereo not drawn),13,9
CC(C)c1nc(C(=O)NCc2cccc(N(C)C)n2)cs1,-3&4,-3&2
C=CCCC(=O)N[C@H]1CC[C@@H]2SC[C@@H](C(=O)N[C@@H](Cc3ccc(O)cc3)C(=O)OC)N2C1=O,-4,-6
O=C1CSC(c2ccc3c(c2)OCO3)N1c1ccc(Cl)cc1 (stereo not drawn),-4,-9

# Single records, as listed above. Order of values: NPYLR7 agonist	NPYLR7 agonist max-min
# CCC(C)N(Cc1ccc(C)cc1)Cc1nccs1 (stereo not drawn) is listed as 13	9
# CCc1ccc(C(=O)N2CCC(c3nc(-c4ccccc4F)no3)CC2)cc1 is listed as 4	0
# Cc1ccc2[nH]c3c(=O)n(CC(C)c4ccccc4)cnc3c2c1 (stereo not drawn) is listed as 1	-3
# C=Cc1ccc(CSc2nccn(-c3ccc(C)cc3)c2=O)cc1 is listed as 5	-10

# The listing continues:
mol,NPYLR7 agonist,NPYLR7 agonist max-min
O=C(NCCc1cscn1)C1CCN(c2nc(-c3ccccc3)nc3c2CCC3)CC1,-1,-3
CCOC(=O)CNS(=O)(=O)c1cc(-c2nnc(Nc3ccc(C)cc3)c3ccccc23)ccc1C,-18,-24
CCOC(=O)c1ccc(NC(=O)C2C(=O)N(C)C3(C)CC2c2ccccc2O3)cc1 (stereo not drawn),3,0
NC1(C(=O)N2CC[C@@H](c3ccc4ccccc4c3)[C@H](O)C2)CCCC1,5,4
CCC(N)C1c2cc(OC)c(OC)cc2CCN1Cc1cccc(C)c1 (stereo not drawn),0,5
O=C(C1CCCN(c2nc(Cc3ccc(Cl)cc3)ns2)C1)N1CCN(c2ccc([N+](=O)[O-])cc2)CC1 (stereo not drawn),-6,-6
Cc1nn(C)c(C)c1C(=O)N(C)Cc1ccc(Cl)cc1,2,1
O=C(Cc1coc2cc3c(cc12)CCC3)Nc1ccccc1N1CCOCC1,1,0
Cc1nnc(-c2cccc(-c3ccc4c(c3)OCCO4)c2)o1,25,20
COc1ccc(C(C)C)cc1-c1cc(N2CCCC2CO)n2nccc2n1 (stereo not drawn),-8,-13
CC(NS(=O)(=O)c1ccc(Cl)c(Cl)c1)c1ccccc1 (stereo not drawn),-7,-13
O=C(c1ccc(OC(F)(F)F)cc1)N1CCC2(CC1)OCc1ccccc12,2,4
O=C(Cn1nc(-c2ccco2)c2sc(N3CCOCC3)nc2c1=O)c1ccccc1,-2,-7
C(=C\c1ccnc2n[nH]c(-c3ccc4c(c3)OCO4)c12)/c1ccccc1,3,2
CC(=O)c1ccc(NC(=O)Cn2nc(C3CCCN(S(C)(=O)=O)C3)n(C)c2=O)cc1 (stereo not drawn),-4,4
O=C(NC1COC2(CCCC2)C1)c1cccc(=O)[nH]1 (stereo not drawn),-1,-1
CCOc1ccccc1CCCNc1nc(C)nc2c1CCNC2,3,-7
CC(C)c1cc(C(=O)N2CCCN(C)C3(CCN(C)CC3)C2)n[nH]1,3,2
COc1cccc(C(=O)N(CCN2CCOCC2)Cc2c(-c3ccccc3)noc2N2CCCCC2C)c1 (stereo not drawn),-3,6
O=C(CSc1nnc(CNC(=O)c2ccco2)o1)NCC1CCCO1 (stereo not drawn),10,3

mol,NPYLR7 agonist,NPYLR7 agonist max-min
CC(C)NC(=S)NN=C1CCC(C(C)(C)C)CC1 (stereo not drawn),2,8
CCS(=O)(=O)c1ccc2oc(-c3ccc(Cl)c(NC(=O)c4ccccc4OC)c3)nc2c1,0,10
O=C(NCCNC(=O)[C@H]1CCCN1C(=O)C12CC3CC(CC(C3)C1)C2)c1ccc(F)cc1,1,4
CCCCc1nc(N2CCN(Cc3cccc([N+](=O)[O-])c3)CC2)c2c(C)nn(-c3ccccc3)c2n1,-9,3
Cc1cccc(Cn2c3c(c(C)c2C(=O)Nc2ccc4c(c2)OCO4)CCCC3)c1,21,27
CC1CC(C)CN(Cc2nc3c(c(=O)n(C)c(=O)n3C)n2CCc2ccccc2)C1 (stereo not drawn),7,2
Oc1ccc(N=Nc2ccc3c(c2)OCCO3)c2ncccc12,-1,0
Cc1onc(-c2ccccc2Cl)c1C(=O)NCCCN1CCCC1=O,-7,-12
Cc1nnc(SCCCn2c(N3CCN(c4ccccc4)CC3)nc3c2c(=O)[nH]c(=O)n3C)s1,0,52
CCOCCCn1c(SCc2cccc(Cl)c2)nc2cc(S(=O)(=O)N3CCCC(C)C3)ccc21 (stereo not drawn),16,11
CCC1=NOC(C(=O)NCc2cccnc2N2CCc3ccccc3C2)C1 (stereo not drawn),2,-4
Cc1[nH]c(=S)[nH]c(=O)c1CCC(=O)NCCc1c[nH]c2ccccc12,4,-1
Cc1nc(-c2cccc(C(=O)NC(C)CS(C)(=O)=O)c2)cs1 (stereo not drawn),2,-1
CC1(C)C2CCC1(CS(=O)(=O)NC1CCCC1)C(=O)C2 (stereo not drawn),20,16
CCOCCNC(=O)c1ccc(-n2nc(C(=O)OCC)cc2-c2ccc(C)c(C)c2)cc1,-1,-3
Cc1ccccc1-n1nc(C(C)C)c(C(=O)NCC2CCCO2)c1C(C)C (stereo not drawn),14,9
Cn1c(=O)[nH]c(=O)c2c1nc(CN1CCN(Cc3ccccc3)CC1)n2CCc1ccccc1,-8,-13
CCCCN(C)c1ncc(Cl)c(C(=O)Nc2cccc(N3CCCNC3=O)c2)n1,1,-2
CC(C(=O)N1CCCCCC1)S(=O)(=O)C(C)c1c(F)cccc1F (stereo not drawn),9,8
Cc1nc2ncnn2c2c1C(=O)NN=CC2,5,9

mol,NPYLR7 agonist,NPYLR7 agonist max-min
CCn1nc(C)c(CNC(=O)CC2C(=O)NCCN2Cc2cccc(F)c2F)c1C (stereo not drawn),-6,-6
Cc1nc(C(C)n2ccnc2-c2ccc(CO)o2)cs1 (stereo not drawn),-1,-4
Cc1nn(-c2ccccc2)c(C)c1C(=O)NCc1cccnc1,3,6
CCOC(=O)Cn1c(=O)c2c(nc3n2CC(C)CN3c2ccccc2OC)n(C)c1=O (stereo not drawn),-3,-4
Cc1ccc(N2CC(C(=O)Nn3cnc4c(cnn4C(C)(C)C)c3=O)CC2=O)cc1 (stereo not drawn),3,2
Cc1cc(N)n(C(C)(C)C)n1,1,0
CCCCOCC(=O)N1C[C@@H](N)C[C@H]1C(=O)NC(C)C,10,5
O=C(COc1ccc(Br)cc1)NNC(=O)Nc1ccccc1,-5,-9
CNC(=O)Cn1cc(OC)c(=O)cc1CSc1nnnn1C,0,-8
COC(=O)c1sc(NC(=O)c2cc3ccccc3o2)nc1C,5,3
O=[N+]([O-])c1ccc(-c2noc(CNCC(O)c3ccccc3)n2)cc1 (stereo not drawn),7,-3
Cc1ccc2nc(/C(Cl)=C/c3ccc(C(=O)O)cc3)cc(=O)n2c1,-4,0
N#CC1(c2ccccc2)CCN(C(=O)C2CC=CCC2C(=O)NCCc2cccc(Cl)c2)CC1 (stereo not drawn),2,-4
COc1cc(CNC(=O)CCN2Cc3cc(Cl)ccc3OC(C)C2)cc(OC)c1OC (stereo not drawn),2,1

# A section from further up, for reference:
mol,NPYLR7 agonist,NPYLR7 agonist max-min
CCn1nc(C)c(CNC(=O)CC2C(=O)NCCN2Cc2cccc(F)c2F)c1C (stereo not drawn),-6,-6
Cc1nc(C(C)n2ccnc2-c2ccc(CO)o2)cs1 (stereo not drawn),-1,-4

# Some of the compounds tested (hit frequency here may not be typical).
